Assay outcomes (PubChem)
MT1-MMP reporter: inhibitors of MT1-MMP promoter transcription, cell-based, luciferase reporter, luminescence (AID 618) | MT1-MMP promoter luciferase reporter cells, luminescence | calls from a first round at 10 µM; hits with a dose series show EC50 in µM | 87,000 tested, 0.62% active;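 active = over half of the reporter light lost at 10 µM or EC50 under 50 µM; inactive = the rest and hits that failed the dose series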;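 note: actives suppress MT1-MMP promoter-driven transcription so potencies describe inhibitors; HT1080 fibrosarcoma cells; overnight exposure; toxic or luciferase-blocking compounds were not removed from the actives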
Calls only; i = inactive. Some of the compounds tested; count on the stated rates, not on these rows.

SMILES | MT1-MMP reporter
COC(=O)CNC(=O)C1(C)C=CCN1C(=O)c1ccccc1 (stereo not drawn) | i
COc1cc2[nH]c(=O)n(CCCCCC(=O)N3CC=C(c4ccccc4)CC3)c(=O)c2cc1OC | i
CCCN(CCC)C(=O)CC(c1ccccc1)c1cc(C)ccc1O (stereo not drawn) | i
COC(=O)C1=C(O)/C(=C\c2cc(C)n(-c3ccccc3C)c2C)N=C1C | i
CSc1nsc(SC)c1NC(=O)N1CCCCC1 | i
Cc1ccc2nc3c(nc2c1)-c1ccccc1C3=O | i
CCc1c2c(nc3ccc(N(C)C)cc13)-c1cccc(=O)n1C2 | i
CCC1=C(OC(=O)N(CC)CC)N2C(=O)OC(=NCCc3c[nH]c4ccccc34)[C@]2(C)[C@H]2C1=CC[C@H]1C(=O)N(CC)C(=O)[C@H]12 | i
Cc1ccc(C)c(NC(=S)c2ccccn2)c1 | i
COC(=O)CCCCCN1C(=O)NC(c2ccccc2)C(C(=O)OCc2ccccc2)=C1C (stereo not drawn) | i
CC1=C(C(=O)Nc2ccccc2)C(c2cccc([N+](=O)[O-])c2)Nc2nc3ccccc3n21 (stereo not drawn) | i
CCCCCCN(C(=O)CCCCCN1C(=O)NC(c2ccc(-c3ccccc3)cc2)C(C(=O)OCc2ccccc2)=C1C)C(C(=O)NCCCC)c1ccc(-c2ccccc2)cc1 (stereo not drawn) | i
CS(=O)(=O)c1ccc(Sc2nc3ccccc3[nH]2)c([N+](=O)[O-])c1 | i
Cc1cc(C)cc(NC(=O)CSCc2cnn(-c3ccccc3)c2-n2cccc2)c1 | i
CSc1ccccc1NC(=S)Nc1ccccc1C(F)(F)F | i
CC(=O)N1CC=CC1(CC(C)C)C(=O)NCCc1c[nH]c2ccccc12 (stereo not drawn) | i
COc1ccc(NC(=O)C2CCCO2)cc1Cl (stereo not drawn) | i
CC1(C(=O)NCCCNc2ncc(C(F)(F)F)cc2Cl)C=CCN1C(=O)c1ccccc1 (stereo not drawn) | i
Cc1cc(C)c(C#N)c(SCC(=O)C(C)(C)C)n1 | i
CCOC(=O)CSc1nc2c(sc(=S)n2-c2ccccc2OC)c(=O)n1Cc1ccco1 | i
O=[N+]([O-])c1nn(-c2ccc3c(c2)OCCO3)n(O)c1=NC1CCCCC1 | i
COc1ccc(/C=c2/sc3n(c2=O)NC2(c4ccccc4)N(C)C(=O)N(C)C2(c2ccccc2)N=3)cc1 (stereo not drawn) | i
CCCN(CCC)CCNC(=O)C1CC(=O)N(c2ccc(OC)cc2)C1c1ccc(OC)cc1 (stereo not drawn) | i
COC(=O)c1ccc(Sc2ccc(F)cc2)c(N)c1 | i
COC(=O)c1cc2sc(Cl)cc2n1CC(=O)NCCC(C)C | i
COc1ccc(C)cc1NC(=O)CC(O)(C(F)(F)F)C(F)(F)F | i
O=C(CCSCCc1ccccn1)Nc1ccc(Br)cn1 | i
CCn1c(=O)cc(SCC(=O)Nc2ccc(OC)c(OC)c2)c2ccccc21 | i
Cc1ccc(-c2noc(CSc3nnc(-c4ccncc4)n3-c3ccc(F)cc3)n2)cc1 | i
Cc1cc2nn(-c3cccc4ccccc34)nc2cc1NC(=O)c1cccs1 | i

In the list so far, 3 have a nitro group on carbon.
SMILES | MT1-MMP reporter
CC1=C(C(=O)Nc2ccccc2)C(c2cccc([N+](=O)[O-])c2)Nc2nc3ccccc3n21 (stereo not drawn) | i
CS(=O)(=O)c1ccc(Sc2nc3ccccc3[nH]2)c([N+](=O)[O-])c1 | i
O=[N+]([O-])c1nn(-c2ccc3c(c2)OCCO3)n(O)c1=NC1CCCCC1 | i

The list continues.
SMILES | MT1-MMP reporter
COc1ccc(OC)c(C2=NOC(C(=O)N3CCCc4ccccc43)C2)c1 (stereo not drawn) | i
CCCc1nc2ccccc2c(=O)n1N | i
CC(C)(C)c1cn(-c2ccc(Cl)cc2)c(=S)[nH]1 | i
C=CCSc1nc(N)c(C(=O)Nc2ccccc2OC)cc1C(=O)Nc1ccccc1 | i
CC(=O)c1ccc(NC(=O)Nc2ccc3c(c2)N(C)C(=O)CS3)cc1 | i
COc1ccc(CCN2CC34C=CC(O3)C(C(=O)NCc3ccccc3Cl)C4C2=O)cc1OC (stereo not drawn) | i
Cc1cc(Br)ccc1OCC(=O)N1CCCCCC1 | i
CC(C)C(=O)c1cn(CC(=O)N2CCCc3ccccc32)c2ccccc12 | i
O=C1NC2(CCCCCC2)N=C1c1ccc(F)cc1 | i
CCCCOc1ccc(C2C(=O)N(C3CCCCC3)CC(=O)N2CC2CCCO2)cc1 (stereo not drawn) | i
CCOC(=O)CCCc1c[nH]c2ccccc12 | i
CNc1nc(OCCNC(=O)Nc2ccccc2)nc(N2CCOCC2)n1 | i
CCC1(C)Cc2ccccc2-c2nc(NCCO)n(-c3ccc(C)cc3)c(=O)c21 (stereo not drawn) | i
COC(=O)[C@@]1(Cc2ccc(F)cc2)[C@H]2c3cc(C(=O)N(C)C)n(Cc4ccsc4Br)c3C[C@H]2CN1C(=O)c1ccccc1 | i
COc1ccccc1CC(=O)Nc1ccccc1O | i
COC(=O)C1=C(C)N(CCCC(=O)O)C(=O)NC1c1ccc(OC)cc1 (stereo not drawn) | i
O=C(C1CCN(CCCc2ccccc2)CC1)N1CCCCC1 | i
COC(=O)c1ccn(-c2nc(-c3ccco3)cc(C(F)(F)F)n2)n1 | i
CN(CCC(=O)Nc1ccc(Br)cc1)Cc1ccccc1 | i
COC(=O)[C@@]1(Cc2ccccc2)[C@H]2c3cc(C(=O)N4CCCC4)n(Cc4ccccc4)c3C[C@H]2CN1C(=O)c1ccccc1 | i
O=C(Cc1cccc2ccccc12)Nc1ccc2oc(-c3ccccc3)nc2c1 | i
CCOc1ccc(-n2c(N)c(-c3nc4ccccc4[nH]3)sc2=S)cc1 | i
COC(=O)[C@@]1(Cc2ccc(OC)cc2)[C@H]2c3cc(C(=O)N4CCCC4)n(Cc4ccc(C)o4)c3C[C@H]2CN1C(=O)c1ccccc1 | i
Cc1cccc(CCNC(=O)CCc2c(C)nc3ncnn3c2C)c1 | i
CCOc1ccc(-n2cc(C(=O)Nc3cccc(Cl)c3)c3cc(OC)c(OC)cc3c2=O)cc1 | i
CCN1CCN(C(=O)CN(C)S(=O)(=O)c2ccc(OC)c(C)c2)CC1 | i
Cn1c(=O)c(C(=O)COC(=O)c2cc(C(F)(F)F)nc3c(C(F)(F)F)cccc23)c(N)n(CC2CC2)c1=O | i
c1ccc(CCc2nc(-c3ccccc3)no2)cc1 | i
CC(Cc1ccccc1)C(=O)NCc1ccccn1 (stereo not drawn) | i
CN(C)CCNCc1ccccc1OC1CCCC1 | i

An excerpt of these results, in CSV form.
canonical_smiles,MT1-MMP reporter
CN(CCC(=O)Nc1ccc(Br)cc1)Cc1ccccc1,i
COC(=O)[C@@]1(Cc2ccccc2)[C@H]2c3cc(C(=O)N4CCCC4)n(Cc4ccccc4)c3C[C@H]2CN1C(=O)c1ccccc1,i
O=C(Cc1cccc2ccccc12)Nc1ccc2oc(-c3ccccc3)nc2c1,i
CCOc1ccc(-n2c(N)c(-c3nc4ccccc4[nH]3)sc2=S)cc1,i
COC(=O)[C@@]1(Cc2ccc(OC)cc2)[C@H]2c3cc(C(=O)N4CCCC4)n(Cc4ccc(C)o4)c3C[C@H]2CN1C(=O)c1ccccc1,i
Cc1cccc(CCNC(=O)CCc2c(C)nc3ncnn3c2C)c1,i

The list continues:
SMILES | MT1-MMP reporter
O=C(c1ccccc1)c1ccc(OCCCN2CCCCC2)cc1 | i
C[C@@H](C(=O)Nc1ccc2ccccc2c1)[C@@H]1C[C@@]1(C)[C@@H](NS(=O)(=O)c1ccc2ccccc2c1)c1ccccc1 | i
CC(=O)C1=C(C)NC(SCC(=O)c2ccc(-c3ccccc3)cc2)=C(C#N)C1c1cccnc1 (stereo not drawn) | i
COc1ccc(-n2nc(C(=O)Nc3ccc(OC)c(OC)c3)c3c4ccccc4n(C)c3c2=O)cc1 | i
COc1ccc(C(=O)NC(=S)Nc2ccc3c(c2)Cc2ccccc2-3)cc1 | i
COc1ccc(CN2CC(C(=O)NCc3ccc4c(c3)OCO4)CC2=O)cc1 (stereo not drawn) | i
CCn1c(COc2ccc3c(c2)OCO3)nnc1SCC(=O)c1ccc(Cl)cc1 | i
c1coc(CNCCCN2CCOCC2)c1 | i
COC(=O)c1ccc(Oc2nc(N(C)C)nc(N3CCOCC3)n2)cc1 | i
CC(=O)N1[C@H](Cc2ccccc2)C=C[C@]1(C)C(=O)O | i
C=CCn1c(CCNC(=O)c2cccs2)nnc1SCC(=O)Nc1cccc(F)c1 | i
CCN(CC)CC(O)COc1ccc2c(c1)OCO2 (stereo not drawn) | i
O=C1CSC(c2ccc3c(c2)OCO3)N1c1ccc(Oc2ccccc2)cc1 (stereo not drawn) | i
CN(C)C(=O)[C@H]1C[C@@H]1[C@H](NC(=O)OCc1ccccc1)c1ccccc1 | i
Cc1nc(NC(=O)c2ccccc2)sc1-c1csc(NCc2ccccc2)n1 | i

Quoted from above (2 entries):
SMILES | MT1-MMP reporter
CN(C)C(=O)[C@H]1C[C@@H]1[C@H](NC(=O)OCc1ccccc1)c1ccccc1 | i
Cc1nc(NC(=O)c2ccccc2)sc1-c1csc(NCc2ccccc2)n1 | i

More compounds
SMILES | MT1-MMP reporter
CC(=O)c1cc(F)c(N2CCN(C(=O)C(C)(C)C)CC2)cc1C | i
COC(=O)[C@@]1(Cc2ccc(F)cc2)[C@H]2c3cc(C(=O)N4CCCC4)n(Cc4ccc(C)c(F)c4F)c3C[C@H]2CN1C(=O)c1ccccc1 | i
CCCNC(=O)c1cc(C)no1 | i
COC(=O)Cc1ccc(NC(=O)c2ccc(C)c(C)c2)cc1 | i
CC1(C)Oc2ccc3ccc(=O)oc3c2/C(=C/NCCN/C=C2\C(=O)C(C)(C)Oc3ccc4ccc(=O)oc4c32)C1=O | i
CCc1ccc(NC(=O)CSc2nnc(CC)c(CC)n2)cc1 | i
FC(F)(F)c1cc(-c2cccs2)nc(-n2cc(Cl)cn2)n1 | i
COc1ccc(Cl)cc1-c1n[nH]c(=S)n1C1CCCCC1 | i
COc1cccc(CN2C(=O)c3ccccc3C2C(=O)NCC2CCCO2)c1 (stereo not drawn) | i
CCOC(=O)CC(NC(=O)c1ccco1)c1ccc(C)cc1 (stereo not drawn) | i
COC(=O)c1ccc(C(NC(=O)OCc2ccccc2)/C(F)=C/[C@@H](C)C(=O)NCc2nn(-c3ccccc3)nc2C)cc1 (stereo partly drawn) | i
CC(Cc1ccccc1)C(=O)N(C)Cc1cccnc1 (stereo not drawn) | i
C(=N\n1cnnc1)/c1cccs1 | i
COc1cccc(-c2cc(C(F)(F)F)nc(-n3cc(Cl)cn3)n2)c1 | i
CC(=O)Nc1cc(C(=O)N2CCN(C)CC2)ccc1S(=O)(=O)c1ccc(C)cc1 | i
O=C(c1ccccc1)c1cc2ccc(O)cc2oc1=O | i
COC(=O)[C@@]1(Cc2ccc(OC)cc2)[C@H]2c3cc(C(=O)N(C)C)n(CCF)c3C[C@H]2CN1C(=O)c1ccccc1 | i
N#Cc1ccc(C23CC4(C2)[C@H](CN(CC2CCCCC2)[C@@H]4c2ccccc2)C3c2ccccc2)cc1 (stereo partly drawn) | i
COC(=O)CNC(=O)[C@@]1(C)C=C[C@@H](Cc2ccccc2)N1C(C)=O | i
CC(C)CC(NC(=O)C1CCC(C)CC1)C(=O)NCc1cccnc1 (stereo not drawn) | i
COCCCNC(=O)c1ccc(Cn2c(=O)c3ccccc3n(Cc3ccccc3C#N)c2=O)cc1 | i
Cc1nn(-c2c(Cl)cc(Cl)cc2Cl)c(=O)c2ccccc12 | i
FC(F)(F)c1cccc(N2CCN(CC3CC4C=CC3C4)CC2)c1 (stereo not drawn) | i
CC(C)COc1ccc2[nH]c3c(c2c1)CCCC3=O | i
CC1(C(=O)O)C=CCN1C(=O)c1ccccc1 (stereo not drawn) | i
CC(=O)N1[C@H](Cc2ccccc2)C=C[C@]1(C)C(=O)NCCc1c[nH]c2ccccc12 | i
C=CCN1C(=O)C(CC(=O)Nc2ccc(C)cc2)SC1=Nc1c(C)n(C)n(-c2ccccc2)c1=O (stereo not drawn) | i
COc1ccc(NC(=O)c2cccnc2N2CCCC2)cc1 | i
CC(C)CC1(C(=O)NCc2cc(F)cc(C(F)(F)F)c2)C=CCN1C(=O)c1ccccc1 (stereo not drawn) | i
Cc1nc2ccccc2n1CCc1nc2c3ccccc3nc(SCC#N)n2n1 | i
C[C@@H](C(=O)Nc1ccc2ccccc2c1)[C@H]1C[C@]1(C)[C@H](NS(=O)(=O)c1ccccc1)c1ccccc1 | i
COc1ccc(CCCc2nnc(SCC(=O)Nc3cccc(C)c3)o2)cc1 | i
Cc1ccc(S(=O)(=O)N2CCC(C(=O)NCc3ccncc3)CC2)cc1 | i
COc1ccc(CNC(=O)[C@H](C)[C@@H]2C[C@@]2(C)[C@@H](NC(=O)OCc2ccccc2)c2ccccc2)cc1OC | i
Cc1cc(C)c(S(=O)(=O)N2CCC(C(=O)NCc3ccc(Cl)cc3Cl)CC2)c(C)c1 | i
O=C(NCCCN1CCCC1=O)Nc1ccc(F)c(Cl)c1 | i
Cc1nn(C)cc1CNC(=O)Nc1ccc(Cl)c(Cl)c1 | i
COc1ccc(C(=O)c2c(C(F)(F)F)oc3c2C(=O)c2ccccc2C3=O)cc1OC | i
CCOC(=O)CCCn1ncn2c(cc3occc32)c1=O | i
CCN(CC)C(=O)C1CC(=O)N(c2ccc(OC)cc2)C1c1ccc(OC)cc1 (stereo not drawn) | i
CCc1cccc(OCCOCCN2CCCC2)c1 | i
CCCNC(=O)CCc1c(C)nc2nc(-c3cc(OC)cc(OC)c3)nn2c1C | i
COc1ccc(-c2nn(-c3ccccc3)cc2C(=O)Nc2nccs2)cc1 | i
CCCOc1ccc2c3c(c(=O)oc2c1OCCC)CCCC3 | i
COC(=O)c1ccc(C(NC(=O)OCc2ccccc2)/C(F)=C/[C@@H](C)C(=O)NCCO)cc1 (stereo partly drawn) | i
COc1ccc(-c2cc(C(F)(F)F)nc(-n3cc(Cl)cn3)n2)cc1 | i
CC(C)Oc1ccc(NC(=O)CCC(=O)O)cc1 | i
